Assay outcomes: PubChem BioAssay, National Center for Advancing Translational Sciences (NCATS)
gsp antag = qHTS for Antagonists of gsp, the Etiologic Mutation Responsible for Fibrous Dysplasia/McCune-Albright Syndrome: qHTS; Potency, µM (series often up to 76.9 µM), inactives show at the top dose activity change, negative = inhibition, actives largely listed as inhibitors; 0.4% of 340,000 active; gsp-mutant cells, cAMP HTRF, 30 min; control for the full effect not named in the record; active = falling curve of any shape with a large fitted effect; inconclusive = falling curve, mostly with a smaller effect; inactive = flat or rising curve; cell line not stated here;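 note: intracellular cAMP measured with PDE inhibitor Ro 20-1724 present during compound exposure; potency is the fitted concentration of half-maximal effect; % is set by controls: 0 for no effect and ±100 for the full control effect; nearly all actives have a fitted effect of over 65% in size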
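HTRF cAMP read-out (cAMP-d2 plus anti-cAMP antibody-K in lysis buffer, 30 min RT). Before lysis, cells are exposed to compounds with […] for 30 min at 37C in DPBS containing Ca/Mg, BSA and Tween 20.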
gsp agonist = qHTS for Agonist of gsp, the Etiologic Mutation Responsible for Fibrous Dysplasia/McCune-Albright Syndrome: qHTS; gsp mutant cells, cAMP HTRF, 30 min; control for the full effect not named in the record; Potency, µM (doses to about 76.9 µM), inactives show at the highest dose activation (cAMP increase), hits mostly activators; 0.13% of 340,000 active; active = well fitted activation curve with a large enough effect; inconclusive = small, poorly fitted or top-dose-only effect, or another doubt; inactive = no such curve, though single readings can be large or run the other way; cell line not stated here;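 note: phosphodiesterase inhibitor Ro 20-1724 added with compounds to block cAMP breakdown; potency is the fitted concentration of half-maximal effect; nearly all actives have a fitted effect of over 60% in size; about a fifth of the inactives were tested at one dose only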
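Cells in DMEM/10% FBS with G418 were pretreated with compounds in DMSO plus […] (300 uM stock) for 30 min at 37C. cAMP was measured by HTRF (cAMP-d2 plus anti-cAMP antibody-K) after 30 min at room temperature.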
Menin-MLL FL inh = qHTS Assay for Inhibitors Targeting the Menin-MLL Interaction in MLL Related Leukemias: Competition With Fluorescein Labeled MLL-derived Peptide | FP activity change, % at 61.4 µM | Fluorescence polarization, fluorescein-MLL peptide displacement from menin | 290,000 tested, under 10 active; inconclusive = falling polarisation curve, or a change in total fluorescence; inactive = total fluorescence flat and polarisation flat or rising; no compound was filed as active; the % refers to the polarisation; negative = inhibition;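 note: % of control where 0% means no effect; inhibitors lower the polarisation; unlabelled MLL peptide was the positive control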
TRPML1 inh = qHTS for Inhibitors of the Human Mucolipin Transient Receptor Potential 1 (TRPML1); 0.02% of 390,000 active; activity change, negative = inhibition, % (test concentration not listed); Mucolipin-1 (Homo sapiens), Q9GZU1; TRPML1-inducible cells, Ca2+ dye fluorescence, FDSS; hits give low values; inhibition of EC80 agonist-evoked calcium signal; in the data active means activity change below about -50%; inconclusive means about -30% to -50%; inactive means above about -30%;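 note: stimulus is agonist 54-4 at its EC80 concentration; % is set by controls: 0 for no effect and ±100 for the full control effect; compound concentration not given in the record; the text of the record puts the active cut at -80%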
Target sequence (Q9GZU1 whole entry, looked up): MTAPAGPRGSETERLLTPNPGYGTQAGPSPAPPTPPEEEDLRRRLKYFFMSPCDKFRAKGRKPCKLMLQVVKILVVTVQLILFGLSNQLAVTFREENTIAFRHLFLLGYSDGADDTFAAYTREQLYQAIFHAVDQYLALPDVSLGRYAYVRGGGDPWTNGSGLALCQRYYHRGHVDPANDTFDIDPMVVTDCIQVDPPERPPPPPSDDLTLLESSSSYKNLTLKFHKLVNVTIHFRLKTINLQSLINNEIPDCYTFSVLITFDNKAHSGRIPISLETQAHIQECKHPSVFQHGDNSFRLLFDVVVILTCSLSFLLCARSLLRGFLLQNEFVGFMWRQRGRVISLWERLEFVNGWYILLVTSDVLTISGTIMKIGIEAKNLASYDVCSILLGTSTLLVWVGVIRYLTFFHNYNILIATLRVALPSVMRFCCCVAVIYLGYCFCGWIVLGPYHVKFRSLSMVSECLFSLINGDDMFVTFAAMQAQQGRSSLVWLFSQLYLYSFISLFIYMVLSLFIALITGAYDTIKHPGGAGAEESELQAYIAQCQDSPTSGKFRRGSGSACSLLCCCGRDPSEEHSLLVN
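Calcium fluorescence in TRPML1-DL cells induced overnight with Tet: a 110 s read after compound pin addition, then a 110 s antagonist read after challenge with 54-4 at 4 uM final (EC80).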
ClpP mod = qHTS Assay for Activators of ClpP | ATP-dependent Clp protease proteolytic subunit (Bacillus subtilis (strain 168)), P80244 | purified B. subtilis ClpP, FRET peptide cleavage, 20 min | Potency, µM (titrated, usually from 57.5 µM), for the others: at the top dose activity change, negative = active | 1.9% of 340,000 active; active = well fitted falling curve with a large enough effect; inconclusive = small, poorly fitted or top-dose-only effect; inactive = no such curve, though single readings can be large or run the other way; note: potency is the fitted concentration of half-maximal effect; the source files actives as falling curves though it sought activators and does not explain the sign; nearly all actives have a fitted effect of over 65% in size; many hits overshoot -100%
Target sequence (P80244 whole entry, looked up): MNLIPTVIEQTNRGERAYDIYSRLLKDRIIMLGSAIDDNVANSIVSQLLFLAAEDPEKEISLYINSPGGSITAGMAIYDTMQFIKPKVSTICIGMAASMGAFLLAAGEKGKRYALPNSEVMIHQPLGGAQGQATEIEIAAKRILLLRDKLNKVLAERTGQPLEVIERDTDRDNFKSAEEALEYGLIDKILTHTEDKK
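ClpP 10 microg/mL final, pH 8 Tris/KCl buffer with BSA, glycerol, Tween-20; compound pinned in; FRET-FV substrate; RT 20 min; Ex320/Em430; ΔFRET vs ADEP 5.8 microM, DMSO, no enzyme.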
TRPML1 ag = qHTS for Agonists of the Human Mucolipin Transient Receptor Potential 1 (TRPML1). Mucolipin-1 (Homo sapiens), Q9GZU1. TRPML1-expressing cells, Ca2+ dye fluorescence, FDSS; host cell line not named in the record; reference of the full effect not given here. activation, % (test concentration not listed). 0.12% of 410,000 active. AID 624414, 2012; in the data active = activation above about 50%; inconclusive = about 30% to 50%; inactive = below about 30%; note: 0% is about no effect; the text of the record puts the active cut at 80%
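Calcium fluorescence on an FDSS kinetic reader gave the read-out. Tet-induced TRPML1-DL cells were plated overnight, dye-loaded (Ca8 with quencher, 45-90 min, room temperature, dark), then read 110 s after compound addition, and again 110 s after 4uM final 54-4 (EC80).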
* marks the source's active call; other numbers are inactive results; u = inconclusive; x = not tested or not shown; & = joins results of further samples; [ ] = dose if it differs, or a comment.

Values run as follows: gsp antag, gsp agonist, Menin-MLL FL inh, TRPML1 inh, ClpP mod, TRPML1 ag
- CC(C)Sc1nc2c(c(=O)[nH]c(=O)n2C)n1Cc1ccc(Cl)cc1
 : 16%[15.4 µM], u, -0.2, 14, 0.5%, 6.5
- COc1ccccc1N1CCN(C2=Nc3cccc4cccc2c34)CC1
 : -24%, -10%[15.4 µM], u, 19, x, 2.9
- CCN(CC)CCN(C(=O)CCS(=O)(=O)c1ccccc1)c1nc2cc(OC)c(OC)cc2s1
 : -14%, -33%[inhibitor], 3.7, -9, -2.0%, -0.5
- CSc1cc(-c2ccccc2)n(Cc2c(Cl)cccc2Cl)c(=O)c1C#N
 : 0%, -13%, -0.1, 46, -16%, 0.5
- FC(F)(F)C(F)(F)c1nc2nc(Cl)c(Cl)nc2[nH]1
 : x, u, x, 1, 4.2%, 0.0
- COc1cccc(-c2n[nH]nc2C2=CC(=O)C[C@H](c3ccc(F)cc3)C2)c1
 : x, 17%, x, 6, -5.2%, 0.7
- COc1cccc(C(O)c2nccn2Cc2ccccc2)c1OC (configuration not stated)
 : 7%, 16%, 4.6, -4, -1.2%, 0.9
- N=C1/C(=C/c2cccn2Cc2ccc(F)cc2)C(=O)N=C2SC=CN12
 : -3%, 2%, 1.3, -8, -0.2%, 1.3
- CCCCCc1cc(O)c2c(C)cc(=O)oc2c1
 : 3%, u, 4.7, 2, -4.4%, 2.3
- CCn1c(=O)c(C(=O)CN(C)Cc2ccc(F)cc2)c(N)n(Cc2ccccc2)c1=O
 : -25%, 17%[15.4 µM], -6.3, 13, x, -0.6
- c1ccc(-c2ccc(OCCCn3cncn3)cc2)cc1
 : -3%, 5%, 6.3, 1, -1.2%, -1.0
- CCCCc1nnc(NC(=O)CSCc2cc(=O)n3cc(C)sc3n2)s1
 : -2%, u, -4.4, u, -4.3%, 0.6
- COc1ccc(-c2csc(N(Cc3ccco3)C(=O)c3cccs3)n2)cc1
 : -7%, 3%, 20, 14, -15%, 1.4
- O=C(O)c1cc(N2C(=O)C3CCCCC3C2=O)ccc1NCc1cccnc1 (configuration not stated)
 : 6%, 9%, -0.5, 1, x, 1.2
- Cn1c(N)c(C(=O)COC(=O)C2(c3ccccc3F)CCCC2)c(=O)n(C)c1=O
 : u, -33%[inhibitor], 1.3, -23, 0.6%, -0.3
- S=C(NCc1ccco1)Nc1ccc(Br)cn1
 : 5%, -5%, 2.1, -8, -1.7%, -1.0
- CCCNC(=S)N(Cc1ccccc1)Cc1nc2ccccc2c(=O)[nH]1
 : 6%, -35%[inhibitor], -0.6, -1, 28µM*, 3.0
- O=C(NNC(=S)Nc1ccccc1)C1CC1
 : 15%, -1%, -0.7, 1, -0.5%, -0.6
- Cc1ccccc1CN1[C@@H](C(C)C)COCCS1(=O)=O
 : 7%, -29%, x, -17, 2.2%, -0.1
- Cc1cc(C)cc(NC2=C(c3ccccc3)C(=O)c3ccccc32)c1
 : x, x, x, 23, -3.7%, -0.8
- COc1ccc(-c2cc(C)no2)cc1S(=O)(=O)NC1CCC(C)CC1 (configuration not stated)
 : x, x, x, 56, -3.4%, 1.0
- O=C(COc1ccccc1)NCC(=O)NC1=NCCS1
 : 0%, 0%, -1.3, 10, 1.3%, 0.6
- CCOC(=O)NS(=O)(=O)c1ccc(CCNC(=O)c2cc(C)on2)cc1
 : -10%, u, 0.4, -3, 0.5%, -0.3
- COc1cc(C(=O)N2CCNC(=O)C2CC(=O)Nc2ccc(C)c(C)c2)cc(OC)c1OC (configuration not stated)
 : x, x, x, -12, 1.5%, 0.0
- O=C(C1CCN(S(=O)(=O)c2ccc(Br)s2)CC1)N1CCCCC1
 : -17%, 9%[15.4 µM], 1.1, 5, x, -0.4
- Cc1cc(Cl)n2c(nc3cc(F)c(F)cc32)c1C#N
 : 13%, 20%[15.4 µM], 5.5, 4, -0.2%, 2.8
- c1ccc2nc3c(nc2c1)CCCC3
 : 10%, -3%, 1.5, 2, -0.4%, 2.5
- CC(OC(=O)CNC(=O)c1ccco1)C(=O)Nc1ccc(Cl)cn1 (configuration not stated)
 : 1%, -43%[inhibitor], x, 25, 19%, -0.6
- O=S1(=O)CCOC[C@H](CC2CCCCC2)N1Cc1ccccc1Br
 : -23%, -62%[inhibitor], 0.4, 14, 2.6%&0.9%, 0.3&1.0
- CC(Oc1cccc(Cl)c1)C(=O)Nc1ccccc1C(=O)N1CCCCC1 (configuration not stated)
 : -4%, -5%, x, -6, -12%, -1.4
- CCc1c(C)sc2c1CCN(C(=O)Nc1ccccc1C(=O)OC)C2c1ccc(OC)cc1 (configuration not stated)
 : x, x, x, 9, 4.9%, -0.6
- COC(=O)/C(C#N)=C/c1c(N2CCCCCC2)nc2c(C)cccn2c1=O
 : u, u, 6.8, 1, 1.4%, 2.6
- CN1C(=O)NC(c2ccc([N+](=O)[O-])cc2)C2=C1CC(C)(C)CC2=O (configuration not stated)
 : -3%, -32%[inhibitor], 1.0, x, 0.4%, x
- CCN(CC)C(=O)CSc1nnc(-c2cccnc2)n1Cc1ccccc1
 : 2%, 5%, -0.3, -3, 1.4%, -0.4
- Cc1cc(Oc2ccccc2)nc(-c2ccccc2O)n1
 : -5%, 13%, 2.4, 42, 0.3%, 0.0
- CC(=O)NC(Cc1ccccc1)C(=O)NC1CCN(C(=O)NC2CCCCC2)CC1 (configuration not stated)
 : 16%, 30%, -0.1, 11, -1.8%, 1.2
- Cc1c(Cl)c([N+](=O)[O-])nn1CCCC(=O)Nc1c(C)n(C)n(-c2ccccc2)c1=O
 : 5%, -1%, 3.0, -9, 0.9%, -0.4
- CCN(CC)C(=O)CSc1nnc(-c2ccccn2)n1-c1ccc(C)c(C)c1
 : -30%, -4%, 4.8, -6, -3.6%, -0.6
- CCN(CC(=O)NCc1cccs1)C(=O)/C=C/c1ccc(Cl)c(Cl)c1
 : -3%, 2%, x, 17, 1.2%, 0.0
- CCN(CC)CCNC(=S)Nc1ccc(F)cc1
 : 12%, 1%, -3.0, 8, x, 0.6
- c1ccc(N=NC2=NN(c3ccccc3)CS2)cc1
 : x, u, x, -4, 2.8%, 0.7
- Cc1ccc(NC(=O)Nc2nc3c(s2)CCCCCC3)cc1C
 : x, x, x, 28, 1.5%, 0.9
- Nc1nc2ccccc2n1C(=O)CCc1ccccc1
 : 17%, -24%, 8.9, -12, 0.6%, 0.6
- COC(=O)c1cc(=O)nc2sc3ccccc3n12
 : 15%, -7%, 2.5, 15, -9.0%, -0.1
- CC1CC=CC2C1C(=O)N(Cc1ccccc1)C2c1ccc(-c2cc3ccccc3s2)cc1F (configuration not stated)
 : x, x, 0.7, 34, x, 0.1
- Cc1cc(C(=O)C(=O)N(C)C)c(C)n1-c1ccc([N+](=O)[O-])cc1
 : 0%, 4%, 3.7, 4, 1.4%, 0.1
- CC(=O)c1ccc(NC(=O)CN2C(=O)CN(C)C(=O)c3ccccc32)cc1
 : x, x, x, 11, 0.4%, 3.7
- COc1ccccc1/C=C/C(C)=O
 : -5%, 27%[15.4 µM], -1.6, 30, 0.9%, -0.5
- COc1ccccc1N1CCN(C(CNC(=O)C(=O)NCCc2ccccc2)c2cccnc2)CC1 (configuration not stated)
 : x, x, x, -1, 1.0%, 0.5
- CN(c1ccc(OCC(=O)OCC(=O)Nc2cccc([N+](=O)[O-])c2)cc1)S(=O)(=O)c1ccc(F)cc1
 : -11%, -2%, -6.1, 5, x, 0.1
- NS(=O)(=O)c1ccc(NC(=S)NNC(=O)CCC(=O)Nc2ccccc2Cl)cc1
 : -3%, u, 1.3, 14, -0.6%, 0.4
- Cc1c(C(=O)Nc2ccccc2N2CCN(C)CC2)oc2ccc(F)cc12
 : -4%, 1%[15.4 µM], x, 8, 0.8%, 0.6
- CCOC(=O)C1=C(COc2ccc(C)cc2)NC(=O)NC1c1cc(C)ccc1C (configuration not stated)
 : -3%, -3%, 6.3, -13, -7.3%, 1.2
- CN(CC(=O)Nc1ccc(F)cc1)C(=O)c1ccccc1OCc1ccc(F)cc1
 : -5%, u, x, 1, 2.2%, 0.6
- Cn1c(CO)c(-c2ccccc2)c2cc([N+](=O)[O-])ccc21
 : -8%, -10%, 2.0, -19, 0.4%, -0.9
- CCOc1ccc(CCNC(=O)c2cccc(S(=O)(=O)N3CCOCC3)c2)cc1OCC
 : 1%, -33%, x, -4, -2.9%, 1.5
- O=C(c1ccccc1)C(Nc1cccc([N+](=O)[O-])c1)c1ccccc1 (configuration not stated)
 : -11%, -8%, x, -2, x, 0.2
- COC(=O)c1ccc(CSc2nc3c(cnn3-c3ccc(F)cc3)c(=O)[nH]2)o1
 : 2%, -53%[inhibitor], -2.5, -7, -1.1%, 0.4
- Cc1ccc(NC(=O)c2c(NC(=O)c3ccco3)sc3c2CCC(C(C)(C)C)C3)c(C)c1 (configuration not stated)
 : x, x, x, -12, -7.6%, -0.2
- CCOC(=O)C(=O)NC(C)CCc1ccccc1 (configuration not stated)
 : -5%, -14%, 6.7, 13, 1.0%, 3.0

(more compounds)
Values run as follows: gsp antag, gsp agonist, Menin-MLL FL inh, TRPML1 inh, ClpP mod, TRPML1 ag
- Cc1cccc(NC(=O)CNC(=O)COC(=O)c2ccc(C(C)(C)C)cc2)c1C
 : 9%, 4%, x, 5, 3.7%, 4.0
- O=C(Nc1cccc(Cl)c1)Nc1cc(S(=O)(=O)N2CCCCC2)ccc1Cl
 : 25µM*, 13%, 3.2, 1, x, 0.1
- CCc1ccccc1NC(=O)N1CCc2ccccc2C1
 : -7%, 10%, 0.2, -6, 0.6%, -0.4
- O=C1C2C(c3ccccc3)C=CC(c3ccccc3)C2C(=O)N1c1ccncc1 (configuration not stated)
 : -12%, -34%[inhibitor], 5.5, -8, -4.1%, 3.6
- O=C(Nc1nc(-c2ccc(Cl)s2)cs1)c1cccs1
 : -19%, 15%, 12, 4, -23%, 3.7
- CC1(C)CC(NCCN2CCN(C3=CC(=C(C#N)C#N)CC(C)(C)C3)CC2)=CC(=C(C#N)C#N)C1
 : -35%, -55%[inhibitor], -3.1, 17, 1.2%, 1.3
